# Cruzain Triton – cruzain (T. cruzi) inhibition with detergent; hit rate 0.43% among 200,000; Potency, µM, for inactives: max response, negative = inhibition, most hits filed as inhibitors; AID 1478; purified cruzain, Z-FR-AMC fluorescence, 0.01% Triton;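 also: plate controls were neutral wells for no effect and buffer without enzyme for full effect; nearly all actives have a fitted effect of over 40% in size; top concentration of the series not given in the record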
# Target sequence (P25779 123-467 limits assumed): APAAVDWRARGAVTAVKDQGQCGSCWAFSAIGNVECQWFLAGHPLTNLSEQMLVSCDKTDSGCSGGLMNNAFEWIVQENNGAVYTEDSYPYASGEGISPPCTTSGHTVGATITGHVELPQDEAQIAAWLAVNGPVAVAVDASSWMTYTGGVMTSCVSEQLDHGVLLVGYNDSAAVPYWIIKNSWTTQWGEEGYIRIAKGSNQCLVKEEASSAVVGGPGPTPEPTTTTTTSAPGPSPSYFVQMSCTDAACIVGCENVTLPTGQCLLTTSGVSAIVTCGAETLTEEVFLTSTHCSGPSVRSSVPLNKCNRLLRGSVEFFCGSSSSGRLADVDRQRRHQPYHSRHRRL
#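 Steps: dispense cruzain (1.5 nM final) in acetate buffer pH 5.5 with DTT and 0.01% Triton X-100; pin-transfer compounds; incubate 15 min RT; add Z-FR-AMC (2 uM final); read fluorescence every 30 s, using the 60 s intensity change.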
# Marburg entry inh – Marburg virus entry inhibition; Marburg virus pseudotyped entry inhibition, cell reporter; control for the full effect not named in the record; about a third of the inactives were read at about 46 µM; AID 540276; Potency, µM (doses to about 37.8 µM), for the others: at the highest dose activity change, negative = inhibition, usual class: inhibitors; hit rate 1.8% among 300,000; active = well fitted inhibition curve with a large enough effect; inconclusive = small, poorly fitted or top-dose-only effect, or effect the other way; inactive = flat fitted curve, though single readings scatter; tested in HEK293 cells; about a fifth of its hits are not listed in these tables; also: % is scaled to controls: 0 for no effect and ±100 for the full control effect; luciferase read-out
# 2A StopGo – FMDV 2A StopGo reporter, luciferase signal | human cells with a luciferase reporter of 2A StopGo recoding; control for the full effect not named in the record | Potency, µM (titrated, usually from 57.9 µM), for inactives: at the top dose signal change, negative = less light | hit rate 1.2% among 410,000 | AID 1159524; active = well fitted falling curve with a large enough effect; inconclusive = small, poorly fitted or top-dose-only effect; inactive = no such curve, though single readings can be large or run the other way; tested in HEK293T cells; also: % is scaled to controls: 0 for no effect and ±100 for the full control effect; nearly all actives have a fitted effect of over 45% in size; luciferase light after 4 h
# SARS PLpro yeast – blocks SARS-CoV papain-like protease in a yeast assay. hit rate 0.19% among 330,000. AID 485353. Potency, µM (top dose mostly 32.9 µM), without a hit: at the top dose activity, positive = growth rescue. S. cerevisiae expressing SARS-CoV PLpro, growth rescue; control for the full effect not named in the record; active means well fitted rising curve with a large enough effect; inconclusive means small, poorly fitted or top-dose-only effect; inactive means no such curve, though single readings can be large or run the other way; also: 0% is about no effect; nearly all actives have a fitted effect of over 55% in size; growth read by luminescence after 48 h
# NS1 function inh – inhibitors of influenza NS1 protein function | S. cerevisiae slowed by influenza A NS1, growth recovery by OD600 | Potency, µM (doses to about 46.1 µM), for the others: top-dose activity, positive = more growth | hit rate 0.4% among 270,000 | AID 2326; active means well fitted rising curve with a large enough effect; inconclusive means small, poorly fitted or top-dose-only effect; inactive means no such curve, though single readings can be large or run the other way; also: nearly all actives have a fitted effect of over 50% in size
#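 Growth recovery, yeast-based: influenza A NS1 expressed in S. cerevisiae causes slow growth, and suppressors are detected by OD600. The parent strain without NS1 is used as positive control.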
# LASV entry inh – blocks Lassa virus binding to or entry into cells | Lassa virus pseudotype entry inhibition, cell reporter; control for the full effect not named in the record | Potency, µM (series often up to 37.9 µM), for the others: at the top dose activity change, negative = inhibition, hits mostly inhibitors | hit rate 1.2% among 300,000; active means well fitted inhibition curve with a large enough effect; inconclusive means small, poorly fitted or top-dose-only effect, or effect the other way; inactive means flat fitted curve, though single readings scatter; tested in HEK293 cells; also: % is scaled to controls: 0 for no effect and ±100 for the full control effect; nearly all actives have a fitted effect of over 50% in size; luciferase read-out
# RE007 growth inh – less growth of the S. pombe RE007 Vpr strain; AID 651644; S. pombe RE007 Vpr strain, BacTiter-Glo ATP luminescence, 24 h; control for the full effect not named in the record; hit rate 0.21% among 360,000; Potency, µM (titrated, usually from 92.2 µM), for the others: at the top dose activity change, negative = less growth; active = well fitted falling curve with a large enough effect; inconclusive = small, poorly fitted or top-dose-only effect; inactive = no such curve, though single readings can be large or run the other way;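 also: % is scaled to controls: 0 for no effect and ±100 for the full control effect; nearly all actives have a fitted effect of over 50% in size; the assay follows cell death caused by Vpr and the record does not say whether a fall means rescue or toxicity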
#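 Fission yeast RE007 carrying one integrated HIV-1 vpr copy, seeded at OD 0.01 in PMG+AL medium with 23 nL pinned compound. Grown 24 h at 30 degrees; viability read by BacTiter-Glo luminescence after 5 min.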
# Cruzain noTriton – cruzain (T. cruzi) inhibition without detergent; P25779; purified cruzain, Z-FR-AMC fluorescence, no detergent; Potency, µM, without a hit: max response, negative = inhibition, usual class: inhibitors; hit rate 2.3% among 200,000; AID 1476;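 also: plate controls were enzyme without inhibitor for no effect and buffer without enzyme for full effect; nearly all actives have a fitted effect of over 40% in size; top concentration of the series not given in the record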
#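 Purified cruzain at 1.5 nM, pre-incubated 15 min with compound at room temperature in 100 mM sodium acetate pH 5.5, 5 mM DTT, 0.00005% Triton X-100. Reaction started with 2 uM Z-FR-AMC; AMC fluorescence increase over 60 s gives rate.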
# Starred values were filed as active, the others as inactive; u = inconclusive; x = no result given; & = joins results of further samples; [ ] = remark or other dose. Unless noted, calls follow the shape of the dose curve; as a rule, active = well fitted curve in the direction sought with a large enough effect; inconclusive = small, poorly fitted or top-dose-only effect, or another doubt; inactive = no such curve, though single readings can be large; an effect the other way counts as inactive or inconclusive. Potency is read from the fitted curve at half-maximal effect.
SMILES,Cruzain Triton,Marburg entry inh,2A StopGo,SARS PLpro yeast,NS1 function inh,LASV entry inh,RE007 growth inh,Cruzain noTriton
CC(CO)(CO)N=Cc1c(O)n(-c2cccc3ccccc23)c(=O)[nH]c1=O,1.1%,7.3%,1.0%,-8.1%,3.1%,0.0%,5.9%,-4.5%
Cc1c(Br)cc(C(=O)N2CCCC2)c(C)c1C,-3.0%,-16.2%,1.0%,-6.4%,-25.9%,2.1%,9.8%,8.2%
COc1ccccc1CCNCc1cc2c(cc1[N+](=O)[O-])OCO2,1.3%,-26.5%,20.8%,2.3%,10.2%,u,-14.3%,-2.5%
COc1ccc(-c2nc(C)ncc2N=Nc2ccccc2)cc1,-2.9%,-15.4%,-14.3%,1.9%,6.6%,2.0%,7.5%,17.1%
COC(=O)C1=C(c2ccc(F)cc2OCc2ccccc2)C[C@@H]2CC[C@H]1N2C(=O)NCc1cccc(F)c1,x,1.2%,-23.4%,6.7%,x,x,3.7%,x
Cc1cc(=O)c(C(=O)c2ccccc2)c(C)o1,x,-8.9%[46.1 µM],-9.2%,x,x,u,26.5%,x
Cc1ccc(C)c(/C=N/Nc2nc3ccccc3c(=O)n2O)c1,x,-22.5%,29.7%,1.7%,5.6%,0.5%,11.5%,x
Cc1ccccc1-n1c(SCc2cccc(F)c2)nc2[nH]ncc2c1=O,-5.9%,-28.4%,u,-28.3%,11.2%,-15.4%,16.3%,-7.3%
CNC(=S)NNC(=O)COc1ccc(C)c(C)c1,7.0%,24.0%,35.9%[activator],12.6µM*,-1.8%,4.3%,6.1%,0.6%
CCN(CCn1cccn1)C(=O)c1cccc(OC2CCN(S(C)(=O)=O)CC2)c1,x,-8.3%,5.0%,u,10.3%,-8.3%,-3.8%,x
NC(=O)Cn1nc([N+](=O)[O-])nc1Oc1ccccc1F,x,7.9%,-7.6%,-0.4%,x,-17.4%,5.8%,x
O=S(=O)(NC1CC1)c1ccc(Cl)cc1,x,3.1%[46.1 µM],11.4%,1.3%,11.8%,19.6%[46.1 µM],2.2%,x
Cc1csc(NC(=O)/C=C/c2ccc(C)o2)n1,-8.1%,21.1%,2.0%,-4.4%,-3.0%,-10.4%,-20.0%,-9.7%
Cc1ccc(C(=O)Nc2ccc(N3CCN(C(=O)c4ccco4)CC3)cc2)cc1,x,1.5%[46.1 µM],-13.2%,-1.2%,1.4%,5.8%,-8.6%,x
CS(=O)(=O)c1cccc(C(=O)Oc2ccccc2)c1,3.2%,u,-18.9%,0.9%,1.7%,13.1%,14.8%,0.8%
Cc1cc(C)cc(NC(=S)NCc2cccn2C)c1,-9.8%,8.1%,79.6%[activator],3.9%,10µM*,-20.7%,13.1%,-8.1%
C=CCC1(CC=C)CCCN1C(=O)C1CCC(=O)N(CCc2ccc(OC)cc2)C1 (stereo not drawn),x,x,31.4%[activator],-8.1%,-36.9%,x,-9.9%,x
Cc1c(C(=O)N2CCCC2)oc2c1-c1nn(CC(=O)NCc3cccc(F)c3)cc1CC2,-2.0%,x,-9.7%,x,x,-9.3%[46.1 µM],x,2.9%
Nc1c(Cl)cc2c(c1Br)Cc1ccccc1-2,x,u,7.0%,x,x,16.7%[46.1 µM],-12.8%,x
O=C(NCCC1=CCCCC1)c1c(O)nc2ccccn2c1=O,x,x,44.8%[activator],-4.0%,-48.4%,x,-12.0%,x
Cc1ccc(S(=O)(=O)C(CNS(=O)(=O)c2ccc(F)c(C(F)(F)F)c2)c2ccco2)cc1 (stereo not drawn),-11.4%,x,58.7%[activator],x,x,-14.8%[46.1 µM],x,17.4%
COc1ccc(S(=O)(=O)N2CCOCC2)cc1NC(=O)COc1ccc(C)cc1,x,7.8%,14.9%,0.7%,x,-10.3%,9.8%,x
CCc1ccc(OCC(=O)Nc2ccc3c(c2)c2ccccc2n3CC)c(Br)c1,7.0%,u,-20.1%,x,x,18.6%[46.1 µM],x,25.9%
O=C(CCc1nc2ccccc2s1)NC1CCOC1=O (stereo not drawn),x,1.6%,5.0%,0.3%,6.6%,x,12.4%,x
CCN1CCN(C(=O)NC2CCCCC2)CC1,x,x,-14.3%,-1.2%,19.3%,x,0.8%,x
CC(=O)NS(=O)(=O)c1ccc(NC(=O)c2ccc3c(c2)C(=O)N(CCC(C)C)C3=O)cc1,u,2.4%,0.0%,14.8%,16.6%,0.0%,x,u
CCOc1ccccc1NC(=O)Cn1nnc(C(=O)Nc2ccc(C)c(C)c2)c1N,-9.3%,5.8%[46.1 µM],0.6%,x,x,2.3%[46.1 µM],x,0.5%
CN(C(=O)c1cc2c(=O)n3ccccc3nc2s1)C1CCCCC1,x,u,-0.5%,x,x,u,-6.4%,x
COc1ccc(C)cc1NC(=O)CCn1nc(C)cc1C,0.2%,x,-6.7%,x,x,u,x,-7.5%
CNCc1c(OCc2ccccc2)ccc2ccccc12,x,u,-2.4%,-8.9%,4.5%,u,-7.5%,x
O=C(Oc1ccc(-c2nnco2)cc1)N(c1ccccc1)c1ccccc1,-3.2%,u,-18.1%,-11.5%,-99.8%,u,-15.0%,-10.6%
Cc1cc(NC(=O)CSc2nc3ccsc3c(=O)n2CCCC(=O)NCCc2ccccc2)no1,x,u,-6.2%,2.3%,x,u,25.4%,x
CCc1ccc(S(=O)(=O)c2cn(Cc3ccc(OC)cc3)c3cc(OC)c(OC)cc3c2=O)cc1,-3.3%,-10.3%[46.1 µM],3.4%,x,x,-23.8%[46.1 µM],x,21.6%
CC1CN(CC(=O)N2CCc3[nH]c4ccccc4c3C2)CC(C)O1 (stereo not drawn),1.4%,u,-19.8%,-16.9%,6.0%,0.7%,7.0%,11.3%
O=C(CS(=O)(=O)c1nc(-c2ccc(Cl)cc2)cn1-c1ccccc1)Nc1cccc(Cl)c1,u,u,33.0%[activator],x,x,-13.3%[46.1 µM],x,-16.8%
Cc1ccc(C(=O)NNC(=O)c2ccc(S(=O)(=O)N(C)c3ccccc3)cc2)cc1,x,15.8%,0.0%,-1.4%,x,-16.8%,8.4%,x
CC(OC(=O)c1c(F)cccc1F)C(=O)NCCC1=CCCCC1 (stereo not drawn),x,-7.0%[46.1 µM],-7.7%,-0.4%,x,u,-2.9%,x
CCOC(=O)N1CCN(C(=O)C2CCN(C(=O)c3ccccc3C)CC2)CC1,x,-17.8%[46.1 µM],u,x,x,u,u,x
Cc1nc(-c2ccccc2)cc(=O)[nH]1,-0.6%,1.2%,12.1%,-7.0%,6.2%,1.3%,13.8%,-3.0%
Cc1cccc(NCCNc2cccc(C)c2)c1,6.9%,-12.6%,5.0%,4.1%,-40.3%,16.9%,-18.3%,3.3%
CC(=O)N1c2ccccc2Oc2cc3ccccc3cc21,-6.2%,u,19.4%,-36.6%,-43.1%,u,-23.8%,3.9%
COCCCN(C(=S)Nc1cc(Cl)cc(Cl)c1)C(C)c1ccccn1 (stereo not drawn),x,x,-17.9%,-2.9%,-144.6%,x,24.1%,x
Cc1ccc(-c2cc(NC(=O)CCl)n(-c3ccccc3)n2)cc1,-4.4%,-24.6%[46.1 µM],22.4µM*,8.8%,-160.7%,-18.2%,u,2.3%
COc1ccc(NC(=O)c2cc3c(=O)n(Cc4cccnc4)ccc3nc2C)cc1OC,-0.4%,x,-12.3%,x,x,u,x,-7.6%
COCCSc1nnc(NC(=O)C(C)(C)C)s1,2.2%,-0.9%,51.7%[activator],4.6%,0.0%,u,-5.4%,2.3%
O=C(Cc1c(F)cccc1Cl)NNC(=O)Nc1ccc2c(c1)OCO2,x,u,44.5%[activator],-6.9%,5.6%,7.9%,-1.7%,x
CCn1ncc(S(=O)(=O)N2CCN(c3cccc(OC)c3)CC2)c1C,x,18.9%,-21.9%,-0.1%,11.0%,1.2%,6.2%,x
CCOC(=O)Cn1cnc2scc(-c3ccccc3)c2c1=O,x,5.6%,5.8%,1.6%,-24.0%,-18.8%,2.9%,x
CCN1CCN(c2nc(Nc3cccc(C)c3)nc(N)c2[N+](=O)[O-])CC1,-7.0%,u,-11.3%,-2.7%,6.1%,u,7.7%,-16.3%
C/C(=C(\C#N)C(=O)NCCCN1CCOCC1)N(C)C,5.1%,7.3%,-13.7%,0.2%,9.8%,3.3%,1.9%,-0.6%
COc1ccc(NC(=O)c2cn3c(nc4ccccc43)c(C#N)c2C)cc1,x,x,-18.7%,1.0%,-1.3%,x,6.7%,x
Cc1ccc(-c2nnn(CC(=O)N(CC(=O)NC3CCCC3)c3cnc4ccccc4c3)n2)o1,-5.8%,-3.8%&1.7%,-3.7%,-0.7%,-5.4%,-5.8%,-6.0%,4.4%
COc1ccc(CCN=CC2=C(O)CC(C)(C)CC2=O)cc1,-10.5%,6.1%,-4.5%,1.2%,-7.8%,-0.3%,-7.6%,-5.1%
Cc1ccc(-n2ncc(C#N)c2/N=C/N2CCCCCC2)cc1,-5.0%,10.5%,u,-8.7%,-40.4%,u,3.2%,-5.2%
Cc1noc(C)c1COc1ccc(C(=O)OC(C)C(=O)Nc2ccc(N3CCOCC3)cc2)cc1 (stereo not drawn),-1.0%,3.5%,10.2%,-0.4%,-35.1%,20.5%,4.8%,u
COc1cc(O)c(C(CCN2CCCC(C)C2)c2ccc(N(C)C)cc2)c(OC)c1 (stereo not drawn),x,x,-12.1%,-0.5%,-10.2%,x,-17.4%,x
COc1ccc(CSc2nc3nc(C)cc(C)n3n2)cc1F,x,x,-15.9%,-2.2%,-4.5%,x,27.1%,x
CC12CN3CN(C1)CC(C)(C3)C2=NO,0.8%,u,-21.6%,14.3%,22.9%,6.7%,2.3%,4.0%
CC12CCC(C(S(=O)(=O)Nc3ccccc3)C1=O)C2(C)C (stereo not drawn),x,10.0%[46.1 µM],28.5%,x,x,-15.6%[46.1 µM],-3.0%,x
Nc1nonc1-n1nnc(C(=O)N/N=C/c2ccccc2)c1CN1CCc2ccccc21,x,-5.2%[46.1 µM],8.3%,-3.1%,27.5%,24.6%[46.1 µM],-10.0%,x
O=C(OC1CCOC1=O)c1cccc(S(=O)(=O)N2CCc3ccccc3C2)c1 (stereo not drawn),x,4.7%[46.1 µM],-20.9%,1.1%,x,0.8%,6.6%,x

# Compound activity (PubChem)
